# High-throughput results from PubChem BioAssay.
# STK33 kinase inh = inhibitors of purified STK33 kinase, primary screen, biochemical, ADP-Glo luminescence, homogeneous, cell-free; MBP phosphorylation; actives 0.073% (n = 320,000); inhibition, % at 10 µM; Serine/threonine-protein kinase 33 (Homo sapiens), Q9BYT3;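 active means inhibition at or above 25%, using the most active replicate where run in duplicate; inactive means inhibition below 25%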
# Target sequence (Q9BYT3 whole entry, looked up): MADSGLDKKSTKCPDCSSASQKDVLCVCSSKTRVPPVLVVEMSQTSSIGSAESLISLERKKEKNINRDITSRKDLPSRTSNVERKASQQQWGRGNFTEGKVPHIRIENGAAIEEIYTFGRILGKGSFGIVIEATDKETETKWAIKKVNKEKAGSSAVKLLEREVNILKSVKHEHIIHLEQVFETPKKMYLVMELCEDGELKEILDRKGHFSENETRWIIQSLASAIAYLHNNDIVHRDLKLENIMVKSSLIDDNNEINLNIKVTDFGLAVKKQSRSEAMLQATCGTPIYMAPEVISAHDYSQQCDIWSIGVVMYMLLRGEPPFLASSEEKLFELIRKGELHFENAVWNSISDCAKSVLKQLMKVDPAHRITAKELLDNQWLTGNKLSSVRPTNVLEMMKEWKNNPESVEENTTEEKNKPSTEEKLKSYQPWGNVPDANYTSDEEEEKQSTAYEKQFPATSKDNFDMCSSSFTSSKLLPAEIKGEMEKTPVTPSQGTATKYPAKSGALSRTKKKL
# * = called active by the depositor; & = joins results of further samples. The list is partial; most or all hits stand in other tables.
1: COC(=O)C(O)(c1ccc(NC(=S)NC(=O)c2ccc(Cl)cc2Cl)c(C)c1)C(F)(F)F (stereo not drawn)
  STK33 kinase inh: -1.5
2: C=CCn1c(O)c(C(C)=NCc2cccnc2)c(=O)[nH]c1=O
  STK33 kinase inh: 0.0
3: Cc1ccc2c(c1)CC1(CN2C)C(=O)NC(=O)N(c2cccc(C)c2C)C1=O (stereo not drawn)
  STK33 kinase inh: -2.1
4: O=c1[nH]c(=O)n(CC2CCCO2)c(O)c1/C=C1\C=Nc2ccccc21 (stereo not drawn)
  STK33 kinase inh: 2.6&-4.2
5: Cc1nc2ccccc2c(=O)n1-c1cccc(C(F)(F)F)c1
  STK33 kinase inh: -1.1
6: O=C(N/N=C/c1c(O)n(CCC2=CCCCC2)c(=O)[nH]c1=O)c1ccccc1
  STK33 kinase inh: -1.1
7: CCCCCn1c(N)c(C(=O)NCc2cccs2)c2nc3ccccc3nc21
  STK33 kinase inh: 0.7
8: CN1CCN(c2ncnc3nc[nH]c23)CC1
  STK33 kinase inh: -3.2
9: CCN(CC)c1ccc(N=Cc2c(O)[nH]c(=O)[nH]c2=O)cc1
  STK33 kinase inh: 7.7
10: C=CCn1c(O)c(/C=N/NC(=O)c2ccncc2)c(=O)[nH]c1=O
  STK33 kinase inh: -1.0

11: Cc1ccc(CN2CCCN(Cc3ccc(Cl)cc3)S2(=O)=O)cc1
  STK33 kinase inh: -1.1
12: CCOc1cc2c(cc1OCC)-n1cccc1C(c1ccc(OC)c(O)c1)NC2 (stereo not drawn)
  STK33 kinase inh: -0.3
13: C=CCN1CCc2cccc3c2[C@H]1Cc1ccc(O)c(O)c1-3
  STK33 kinase inh: 1.8
14: CC1CCC(NCC(O)c2ccccc2)CC1 (stereo not drawn)
  STK33 kinase inh: 0.6
15: COc1ccc(OCC(=O)N2CCN(Cc3ccc(SC)cc3)CC2)cc1
  STK33 kinase inh: 0.1
16: CCCCCCN=C(C)c1c(O)n(CCCC)c(=O)[nH]c1=O
  STK33 kinase inh: 0.0
17: O=c1[nH]c2ccccc2n1CCCN1CCC(n2c(=O)[nH]c3cc(Cl)ccc32)CC1
  STK33 kinase inh: -0.5
18: CC1(C)C(C(=O)NCc2ccco2)C1(C)C
  STK33 kinase inh: -0.5
19: COc1ccc(N2C(=O)NC(=O)/C(=C/c3ccc4c(c3)Cc3ccccc3-4)C2=O)cc1
  STK33 kinase inh: -1.4
20: CCN(CC)C(=O)c1ccc2c(c1)C1C(Cl)C(Sc3ccccc3[N+](=O)[O-])CC1C(C(=O)O)N2 (stereo not drawn)
  STK33 kinase inh: 3.1

21: O=C(Nc1ccncc1)c1cccn(Cc2ccccc2)c1=O
  STK33 kinase inh: 0.1
22: C=CCn1c(O)c(/C(C)=N/NC(=S)Nc2ccccc2)c(=O)[nH]c1=O
  STK33 kinase inh: -0.9
23: COC(=O)N(c1ccccc1)P(=O)(Oc1ccccc1)Oc1ccccc1
  STK33 kinase inh: -1.4
24: O=C(c1cccnc1)C1CCCN(Cc2nc(-c3cnccn3)no2)C1 (stereo not drawn)
  STK33 kinase inh: -1.4
25: CN(Cc1c[nH]c2ccccc12)C1CCCCC1
  STK33 kinase inh: -1.6
26: CC(=O)O[C@@]12CO[C@@H]1C[C@@H](O)[C@@]1(C)C(=O)[C@H](O)C3=C(C)[C@@H](OC(=O)[C@H](O)[C@@H](NC(=O)c4ccccc4)c4ccccc4)C[C@@](O)([C@@H](OC(=O)c4ccccc4)C12)C3(C)C (stereo partly drawn)
  STK33 kinase inh: -0.9
27: Cc1c(C)c2ccc(OCC(=O)N3C[C@H]4C[C@@H](C3)c3cccc(=O)n3C4)c(C)c2oc1=O
  STK33 kinase inh: -0.9
28: O=C(c1ccccc1)c1cn(CC(=O)N2CCCC2)c2ccccc12
  STK33 kinase inh: 0.5
29: Cc1cccc(-n2c(-c3ccco3)nc3ccccc3c2=O)n1
  STK33 kinase inh: -0.4
30: Fc1cccc(F)c1CN1CCN(Cc2c(F)cccc2F)CC1
  STK33 kinase inh: -1.7

31: C[C@]12CCC3C(CC[C@H]4C[C@@H](O)CC[C@]34C)[C@H]1C=CC2=O (stereo partly drawn)
  STK33 kinase inh: 0.0
32: C=CCn1c(O)c(C=NCCCOc2ccc(CC)cc2)c(=O)[nH]c1=S
  STK33 kinase inh: 0.2
33: NC(CC(=O)O)C1CCCCC1 (stereo not drawn)
  STK33 kinase inh: 0.6
34: CC(=O)OC1(c2ccc(C)cc2)CN2CCC1c1ccccc12 (stereo not drawn)
  STK33 kinase inh: 2.2
35: O=c1[nH]c(=S)n(C2CCCCC2)c(O)c1/C=N/N1CCOCC1
  STK33 kinase inh: -1.2
36: CC/C(=N\NC(=O)c1ccccc1Cl)c1c(O)n(C2CCCCC2)c(=O)[nH]c1=O
  STK33 kinase inh: -0.5
37: CC(C)CN(C(=O)CN1CC=C(c2ccccc2)CC1)c1c(N)n(CC(C)C)c(=O)[nH]c1=O
  STK33 kinase inh: -1.6
38: CCOC(=O)C(O)(c1ccc(N(CC)C(=O)OC)cc1)C(F)(F)F (stereo not drawn)
  STK33 kinase inh: -0.6
39: CC12CCC(=O)C=C1CCC1C2CCC2(C)C(O)CCC12 (stereo not drawn)
  STK33 kinase inh: -1.5
40: CCCOc1ccccc1C1SCC(=O)Nc2c1c(=O)[nH]n2C(C)CCC (stereo not drawn)
  STK33 kinase inh: 0.2

41: COC(=O)C(C)NC(=S)N1CC2C[C@@H](C1)Cn1c2cccc1=O (stereo partly drawn)
  STK33 kinase inh: -1.1
42: O=C1CN=C(c2ccccc2)c2oc3ccc(Br)cc3c2N1
  STK33 kinase inh: 0.1
43: O=C1NC(=O)N(c2ccccc2F)C(=O)/C1=C/c1cn(CC(=O)N2CCOCC2)c2ccccc12
  STK33 kinase inh: 9.7
44: CCCCn1c(O)c(C=Nc2c(C)n(C)n(-c3ccccc3)c2=O)c(=O)[nH]c1=O
  STK33 kinase inh: 0.6
45: CC(C)C(=O)Nc1ccc(N2CCN(C)CC2)c(F)c1
  STK33 kinase inh: -1.4
46: COP(=O)(OC)C(NS(=O)(=O)c1ccccc1)C(Cl)(Cl)Cl (stereo not drawn)
  STK33 kinase inh: -1.1
47: COc1ccc(N2C(=O)CC(=O)NC2=O)cc1
  STK33 kinase inh: -0.5
48: Cc1ccc(N2C(=O)NC(=O)/C(=C\c3cccn3C(C)(C)C)C2=O)cc1
  STK33 kinase inh: -1.3
49: C[N+]12CCC(CC1)C(C#N)(N1CCOCC1)C2 (stereo not drawn)
  STK33 kinase inh: -3.2
50: O=C1NC(=O)N(c2ccc3c(c2)OCO3)C(=O)/C1=C/c1ccc(N2CCCC2)o1
  STK33 kinase inh: -1.3

51: CN1C(=O)C(=Cc2ccccc2OS(=O)(=O)c2ccccc2)C(=O)N(C)C1=O
  STK33 kinase inh: 0.0
52: Cn1cc(C(=O)N2CCOCC2)c2ccccc21
  STK33 kinase inh: -0.8
53: O=C(CCN1CCOCC1)NCC(=O)Nc1ccc(Br)cc1C(=O)c1ccccc1
  STK33 kinase inh: -0.9
54: CCN1C[C@@]2(COC)C3[C@@H](OC)[C@H]4[C@@H]1[C@@]3(C1C[C@H]3[C@H](OC(=O)c5ccccc5)C1[C@]4(OC(C)=O)C[C@H]3OC)[C@@H](OC)C[C@H]2O (stereo partly drawn)
  STK33 kinase inh: -1.4
55: COc1ccc(NC(=S)NC(NC(=O)CF)C(Cl)(Cl)Cl)c([N+](=O)[O-])c1 (stereo not drawn)
  STK33 kinase inh: -4.0
56: CCN(CC)c1ccc(CN(C)CCc2ccc(OC)c(OC)c2)cc1
  STK33 kinase inh: 0.1
57: CN(C)CCN=Cc1c(O)n(Cc2ccco2)c(=O)[nH]c1=O
  STK33 kinase inh: 1.1
58: O=c1[nH]c(=S)n(C2CC2)c(O)c1C=NCCc1ccccc1
  STK33 kinase inh: -2.1
59: O=C(CN1C(=O)CCSc2ccccc21)N1CCC2(CC1)OCCO2
  STK33 kinase inh: -2.0
60: Cc1cc(/C=C2/C(=O)NC(=O)N(C)C2=O)c(C)n1-c1ccccc1
  STK33 kinase inh: 0.6

61: COc1ccccc1CCNC1C2CC3CC(C2)CC1C3 (stereo not drawn)
  STK33 kinase inh: -0.7
62: CC1(C)CSC(Nc2ccc(F)c(Cl)c2)=N1
  STK33 kinase inh: -1.4
63: O=C1CN(O)C(c2ccccc2)=c2cc(Br)ccc2=N1
  STK33 kinase inh: -1.4
64: CN(C)C1C(=O)C(C(N)=O)=C(O)C2(O)C(=O)C3=C(O)c4c(O)cccc4C(C)(O)C3CC12 (stereo not drawn)
  STK33 kinase inh: 3.5
65: Cc1nn(Cc2ccccc2Cl)c(Cl)c1C(=O)OC(C(=O)NC(N)=O)C(C)C (stereo not drawn)
  STK33 kinase inh: -1.7
66: CC1(C)N(O)C2CCCCC2N1O (stereo not drawn)
  STK33 kinase inh: -0.9
67: OC1/C(=C/c2ccc(Cl)cc2Cl)N2CCC1CC2 (stereo not drawn)
  STK33 kinase inh: -0.3
